KCNQ2 pot – potentiators of rat KCNQ2 potassium channel; O88943; CHO-K1 KCNQ2, FluxOR thallium flux fluorescence; hits give high values; B-score at 10 µM; 310,000 compounds, 0.54% hits;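 active = fluorescence ratio B-score at least 3 SD of library B-scores, with initial fluorescence B-score within 3 SD, cut at about 5.3 in these data; same plate scores as AID 2156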;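 also: B-score of peak minus minimum over baseline fluorescence ratio after K+ and Tl+ stimulus; positive B-score means potentiation of KCNQ2 with more thallium influx and brighter signal; only the inactives scoring about 0 or higher are listed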
Target sequence (O88943 whole entry, looked up): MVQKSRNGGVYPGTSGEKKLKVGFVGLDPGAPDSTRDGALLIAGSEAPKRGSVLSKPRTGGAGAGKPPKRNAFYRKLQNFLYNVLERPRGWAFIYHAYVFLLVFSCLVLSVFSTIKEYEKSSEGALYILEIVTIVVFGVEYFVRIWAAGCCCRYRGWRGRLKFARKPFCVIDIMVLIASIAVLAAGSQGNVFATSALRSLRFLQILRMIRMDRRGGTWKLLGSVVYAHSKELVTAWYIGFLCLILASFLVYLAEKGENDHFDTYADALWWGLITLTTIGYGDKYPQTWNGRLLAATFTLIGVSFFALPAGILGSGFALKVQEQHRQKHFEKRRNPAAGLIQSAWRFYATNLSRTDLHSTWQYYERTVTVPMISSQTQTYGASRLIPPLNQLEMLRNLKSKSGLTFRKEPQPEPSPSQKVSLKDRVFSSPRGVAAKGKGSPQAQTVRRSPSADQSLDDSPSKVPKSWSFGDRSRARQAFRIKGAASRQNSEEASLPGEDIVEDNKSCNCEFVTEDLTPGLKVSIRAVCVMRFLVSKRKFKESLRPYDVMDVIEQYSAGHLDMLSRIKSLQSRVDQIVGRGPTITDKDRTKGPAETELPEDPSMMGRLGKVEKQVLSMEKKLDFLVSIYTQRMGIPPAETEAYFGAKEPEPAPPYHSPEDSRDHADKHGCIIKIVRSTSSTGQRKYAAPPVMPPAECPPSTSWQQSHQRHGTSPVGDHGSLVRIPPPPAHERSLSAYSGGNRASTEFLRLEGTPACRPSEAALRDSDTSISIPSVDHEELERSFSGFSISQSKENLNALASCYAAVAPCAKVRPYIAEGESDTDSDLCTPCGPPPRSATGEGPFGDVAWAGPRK
KCNQ2 pot baseline – second read-out of KCNQ2 pot, no call of its own (marks repeat the call); B-score; compound at 10 µM; measured here: initial fluorescence intensity artifact check;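 brightness before thallium and not channel activity; 0 = typical well and far values either way flag optical interference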
An asterisk follows results filed as active; / = no result given. A portion of the library; rates above refer to the full screens.

Order of values: KCNQ2 pot, KCNQ2 pot baseline
1	COc1cccc(OCc2cc(C(=O)N(C)Cc3nc4ccccc4[nH]3)no2)c1
  0.47, -0.45
2	CCOC(=O)c1cn[nH]c1C(F)(F)F
  0.22, -0.66
3	COc1cc(C(=O)Nc2ccc(C)cn2)c([N+](=O)[O-])cc1OC
  0.09, -3.2
4	CN(Cc1cccnc1)C(=O)CNC(=O)c1ccc(Cl)cc1Cl
  0.03, 1.9
5	Cc1cccc(NC(=O)NC2(C)CCS(=O)(=O)C2)c1 (stereo unspecified)
  0.9, 0.98
6	COCCNC(=O)C(c1ccco1)N(C(=O)Cn1nnc2ccccc21)c1ccccc1C (stereo unspecified)
  0.77, 0.01
7	CCCCNC(=O)Nc1c(C(=O)OC)[nH]c2ccc(C)cc12
  0.01, 0.69
8	CC(=O)Nc1ccc(S(=O)(=O)NNC(=O)C2CCCCC2)cc1
  0.88, 0.7
9	Cc1cc(C)[n+]2n1C(=O)C(c1ccccc1)=C2[O-]
  0.01, /
10	CN(CC(=O)Nc1cccc(F)c1)C(=O)c1cccnc1Sc1ccc(Cl)cc1
  0.66, -1.1
11	Cc1n[nH]c(=O)c2c(NC(=O)CSc3nc4ccccc4c(=O)n3C(C)C)oc(C)c12
  0.11, -0.54
12	CCOC(=O)c1ccc(NC(=O)c2ccccc2[N+](=O)[O-])cc1
  0.95, -0.89
13	CCOc1ccccc1N(C(=O)c1snc(C(N)=O)c1N)C(C(=O)NC1CCCC1)c1cccs1 (stereo unspecified)
  0.21, 0.17
14	COc1ccc(/C=C(\NC(=O)c2ccccc2)C(=O)NCCN2CCOCC2)cc1OC
  1.9, 0.57
15	O=C(NCCS(=O)(=O)N1CCN(c2cccc(Cl)c2)CC1)c1ccc2c(c1)OCO2
  0.07, 0
16	Cc1ccc(C(=O)Oc2cc(C)[nH]c(=O)c2[N+](=O)[O-])cc1
  0.67, -0.94
17	S=C(NCc1cccs1)NCC1CCCO1 (stereo unspecified)
  0.01, -0.2
18	CN(C)c1ccc(N=Nc2ccccc2C(=O)OCC(=O)Nc2ccccc2C(F)(F)F)cc1
  0.14, -3
19	C/C(=N\N1CCN(Cc2ccc(C)cc2)CC1)c1ccco1
  0.01, -1.4
20	CCN(CC#CCC1(O)c2ccccc2-c2ccccc21)C(C)C
  0.23, 0.66
21	COC(CN(C(=O)CCl)C(C(=O)NC1CCCCC1)c1ccccc1C)OC (stereo unspecified)
  0.38, -0.5
22	CC1(OC(=O)C2CCCC2)C(=O)C=C2C=C(c3ccsc3)N(Cc3ccco3)C=C2C1=O (stereo unspecified)
  0.93, 0.02
23	N/N=C1\CCCc2nonc21
  0.04, 1.2
24	Cc1cccc(NC(=O)CCn2ccnc2C)c1
  0.09, 1.1
25	Cc1nn(CC(=O)NCCN2CCOCC2)c(=O)c2cc3sccc3n12
  0.35, 0.46
26	Cc1ccc(S(=O)(=O)NCCSc2nnc(N)s2)cc1
  0.88, -0.08
27	CCOC(=O)CNC(=O)Cn1cnc2ccc(S(=O)(=O)N3CCC(C)CC3)cc2c1=O
  0.1, 0.1
28	Cc1nc2sccn2c(=O)c1S(=O)(=O)NCC1CCN(Cc2ccccc2Cl)CC1
  1.3, -0.39
29	O=C(N/N=C/c1cccc(O)c1)c1ccccc1O
  0.85, -1.6
30	Cc1nn(CC(=O)NCCCN2CCN(C)CC2)c(=O)c2cc(-c3ccccc3)nn12
  0.14, 2.6
31	Cc1nn(C)c(C)c1NS(=O)(=O)c1ccc(OC(F)(F)F)cc1
  0.78, -1.1
32	COc1ccc(OCC(=O)NCc2cccnc2)cc1
  2, -0.07
33	COc1ccc(CNC(=O)Cc2csc(Nc3nc(=S)[nH]c4ccccc34)n2)cc1
  1.4, 0.27
34	COc1ccc(C(N)=O)cc1NC(=O)CC(O)(C(F)(F)F)C(F)(F)F
  0.4, -0.07
35	COc1ccc(C2=NOC(COC(=O)c3ccc4ccccc4n3)C2)cc1 (stereo unspecified)
  0.41, 1.7
36	Cc1ccc(S(=O)(=O)N2N=C3CCCCC3C2(O)C(F)(F)F)cc1 (stereo unspecified)
  1.5, 1.5
37	Cc1cc(C(=O)Nc2ccc(S(=O)(=O)Nc3onc(C)c3C)cc2)c(C)o1
  0.41, 1.4
38	CCOc1ccc(CCN2C(=O)c3cccnc3C2=O)cc1OCC
  0.94, 0.21
39	C[C@H](NC(=O)c1nc[nH]c1C(=O)N1CCNCC1)C(=O)OC(C)(C)C
  0.22, 1.8
40	Cn1c(=O)c2c(nc(N/N=C/c3cccs3)n2Cc2ccc(Br)cc2)n(C)c1=O
  1.4, -0.27
41	CC(C)NC(=O)CSc1nc2[nH]ncc2c(=O)[nH]1
  0.58, -0.67
42	CCCCCNC(=O)c1ccc2c(=O)n(CC3CCCO3)c(=S)[nH]c2c1 (stereo unspecified)
  0.82, -0.53
43	O=C(CSCCO)Nc1ccccc1
  1.5, 1.1
44	COc1cccc(CC(=O)OCC(=O)N(C)CC(=O)Nc2ccc(F)cc2)c1
  1.2, 4.8
45	CN(C)C(=S)SCC(=O)NCc1ccc(F)cc1
  0.49, 0.26

A second format for part of the listing above:
no. | Molecule | KCNQ2 pot | KCNQ2 pot baseline
41 | CC(C)NC(=O)CSc1nc2[nH]ncc2c(=O)[nH]1 | 0.58 | -0.67
42 | CCCCCNC(=O)c1ccc2c(=O)n(CC3CCCO3)c(=S)[nH]c2c1 (stereo unspecified) | 0.82 | -0.53

(cont.)
Order of values: KCNQ2 pot, KCNQ2 pot baseline
46	O=Cc1ccc(-c2ccc(Cl)cc2Cl)[nH]1
  0.35, -1.4
47	CCNc1nc2ccccc2[nH]1
  0.92, 1
48	CC(C)CCNC(=O)CCS(=O)(=O)c1cccc2nonc12
  1.6, -1.4
49	CCOc1ccccc1Nc1nnc(SCC(=O)Nc2nc(-c3ccc(OC)cc3)cs2)s1
  1.2, -0.76
50	O=C(Nc1cccc(F)c1)Nc1ccnn1C1CCN(C(=O)c2ccccn2)CC1
  1, 0.05
51	O=S(=O)(CC(CN1CCOCC1)N1CCOCC1)c1ccccc1 (stereo unspecified)
  1.1, -0.52
52	C#CCOCCOCCOCCNc1nc(N2CCN(C(=O)[C@H](CCC(=O)O)n3cc(C(N)CC(C)C)nn3)CC2)nc(N2CCN(C(=O)[C@H](Cc3cc4ccccc4[nH]3)n3cc(C(N)CC(C)C)nn3)CC2)n1 (stereo partly specified)
  0.56, 0.23
53	O=C1NC[C@H](CC2CCCCC2)N(CCc2cccc(F)c2)C1=O
  0.48, -0.64
54	Cc1nc(N)sc1C(=O)N/N=C/c1cccnc1
  0.97, -0.35
55	CCCc1c(OCCCCc2nn[nH]n2)ccc(C(C)=O)c1O
  0.55, -0.13
56	COc1ccc(OCC(O)CN2C(=O)c3ccccc3C2=O)cc1 (stereo unspecified)
  0.83, 1.4
57	COc1ccc(CCN(Cc2nc3ccccc3c(=O)[nH]2)C(=O)c2ccco2)cc1OC
  0.72, 0.42
58	Cc1cccc(OCCCC(=O)Nc2ccccc2C(F)(F)F)c1
  0.14, 0.04
59	Cc1ccccc1NC(=O)Cc1nc(COC(=O)c2cccc(C)c2O)cs1
  0.74, 1.4
60	Cc1cc(C)c(C#N)c(SCc2[nH]nc3c2C(c2ccccc2)C(C#N)=C(N)O3)n1 (stereo unspecified)
  0.21, 1.4
61	COc1cccc(COC(=O)C2CCN(C(=O)c3ccccc3C)CC2)c1OC
  0.26, -0.15
62	Cc1cc(C(=O)NCc2cc(C(=O)O)oc2C)c(C)o1
  0.03, 0.59
63	COc1ccc(CCNC(=O)CN2c3cccc4cccc(c34)S2(=O)=O)cc1OC
  1.6, -1.6
64	CC[C@@H](C)[C@H](NC(=O)Cc1c(C)c2c(cc(C)c3c(C)c(C)oc32)oc1=O)C(=O)O
  0.74, 0.44
65	CC(C)NC(=O)COc1ccccc1C#N
  0.09, -0.23
66	CC(C)N(Cc1ccccc1)CC(O)COc1ccc(S(=O)(=O)N2CCOCC2)cc1Cl (stereo unspecified)
  0.74, -0.54
67	CC12CCC(=O)N1C(C(=O)N1CCN(S(=O)(=O)c3cccc(C(F)(F)F)c3)CC1)CS2 (stereo unspecified)
  1.3, 0.17
68	Fc1c(F)c(F)c(N=Cc2ccc3ncccc3c2)c(F)c1F
  0.5, 0.87
69	CC(=O)c1ccc(Nc2c3c(c(C#N)c4nc5ccccc5n24)CCC3)cc1
  0.07, -0.06
70	CCC(C)Nc1nc(-c2ccc3c(c2)NC(=O)CO3)cs1 (stereo unspecified)
  1.4, 0.44
71	O=S(=O)(Nc1ccc(Br)cn1)c1ccc2ccccc2c1
  0.59, 1.1
72	CCOc1ccc(/C=C(\C#N)C(=O)NC2CC2)c(OCC)c1
  0.01, 3.2
73	O=C(Cc1ccccc1)NCC(=O)OCC(=O)c1ccccc1Cl
  1.5, -0.17
74	CC(=O)N/C(=C\c1ccccc1)C(=O)OCC(=O)c1c(N)n(CC(C)C)c(=O)n(C)c1=O
  0.41, -1.1
75	CCc1cc(-c2n[nH]c(C)c2-c2nc(C)cs2)c(O)cc1OC
  2.6, -1.6

Three compounds drawn at random from those above, as already listed:
Order of values: KCNQ2 pot, KCNQ2 pot baseline
62	Cc1cc(C(=O)NCc2cc(C(=O)O)oc2C)c(C)o1
  0.03, 0.59
64	CC[C@@H](C)[C@H](NC(=O)Cc1c(C)c2c(cc(C)c3c(C)c(C)oc32)oc1=O)C(=O)O
  0.74, 0.44
74	CC(=O)N/C(=C\c1ccccc1)C(=O)OCC(=O)c1c(N)n(CC(C)C)c(=O)n(C)c1=O
  0.41, -1.1

(list continues)
Order of values: KCNQ2 pot, KCNQ2 pot baseline
76	CCOc1cc(C2NC(=O)NC(C)=C2C(=O)NCc2ccccc2)c(Cl)cc1O (stereo unspecified)
  0.55, -2.1
77	COC(=O)c1cc(OC)c(OCc2cc(C(=O)OC)oc2C)c(OC)c1
  0.28, 1.6
78	c1ccc(CSc2nnc3c(n2)OC(c2ccco2)Nc2ccccc2-3)cc1 (stereo unspecified)
  0.05, -1.4
79	CCOC(=O)C1=C(C)NC2=C(C(=O)c3ccccc32)C1c1ccc(O)cc1 (stereo unspecified)
  0.3, 0.05
80	Cc1sc(N)nc1C12CC3CC(CC(C3)C1)C2
  2.8, -2.3
81	CSCC[C@H](NC(=O)Nc1ccc(OC(F)(F)F)cc1)C(=O)O
  0.2, 0.54
82	COCCNC(=O)CN1C(=O)COc2ccc(S(=O)(=O)N3CC(C)CC(C)C3)cc21 (stereo unspecified)
  0.43, 1.1
83	COc1cccc(-n2c(=O)c3c(C)c(C(=O)N(C)C)sc3n(CC(=O)NCCc3ccc(OC)c(OC)c3)c2=O)c1
  0.04, -0.93
84	Cc1nn(C)cc1CNC(=O)c1cccc(Cl)c1
  0.15, -1.9
85	O=C(NCc1n[nH]c(=S)n1-c1ccc(Cl)c(Cl)c1)c1ccc(S(=O)(=O)N2CCOCC2)cc1
  0.97, -2.6
86	COC(=O)c1ccc(COC(=O)c2cccnc2Cl)cc1
  2.1, 0.65
87	CN(CC(=O)Nc1ccccc1N1CCOCC1)S(=O)(=O)c1ccc(Cl)cc1
  0.69, -1.5
88	CCOC(=O)c1c(C)c(C(=O)NCc2cccs2)c(C)n1CC
  4.5, -0.92
89	CCC(C(=O)N1CCN(Cc2ccc3c(c2)OCO3)CC1)n1c(=O)[nH]c2ccccc2c1=O (stereo unspecified)
  1.3, -0.03
90	S=c1[nH]nc(C2CCCCC2)n1/N=C/c1ccccc1Cl
  1.4, 0.01

Three entries already listed, sorted by heavy-atom count, rising:
Order of values: KCNQ2 pot, KCNQ2 pot baseline
80	Cc1sc(N)nc1C12CC3CC(CC(C3)C1)C2
  2.8, -2.3
79	CCOC(=O)C1=C(C)NC2=C(C(=O)c3ccccc32)C1c1ccc(O)cc1 (stereo unspecified)
  0.3, 0.05
87	CN(CC(=O)Nc1ccccc1N1CCOCC1)S(=O)(=O)c1ccc(Cl)cc1
  0.69, -1.5

The results go on.
Order of values: KCNQ2 pot, KCNQ2 pot baseline
91	COc1ccc(N(CC(=O)NCc2cccnc2)S(=O)(=O)c2ccccc2)c(OC)c1
  1.4, -1.4
92	CCc1nnc(NC(=O)CSc2nnc(COc3ccc(C#N)cc3)n2-c2ccccc2)s1
  0.65, 0.95
93	CC(C)Oc1ccc(C2CC(=O)N(c3cccc(C(=O)O)c3)C2=O)cc1 (stereo unspecified)
  0.61, 0.78
94	Cc1ccc(N2C(=O)CC(Sc3nc(C)cc(C)n3)C2=O)cc1 (stereo unspecified)
  0.26, -0.92
95	CCC(c1nnnn1Cc1ccc(F)cc1)N(CCCO)Cc1cc2cc3c(cc2[nH]c1=O)OCO3 (stereo unspecified)
  1.1, -0.94
96	Cc1nnc(SCc2cc(=O)[nH]c(N3CCN(Cc4ccccc4)CC3)n2)s1
  1.2, 1.8
97	COc1ccc(Cl)cc1Nc1nc(-c2sc(NC(=O)C(C)(C)C)nc2C)cs1
  0.02, 1
98	Cc1cc(N/N=C/c2ccc(O)c(C)c2O)nc(-c2ccccc2O)n1
  1.5, 0.02
99	CN(C)c1ccc(NC(=O)CC2NCCNC2=O)cc1 (stereo unspecified)
  0.05, -0.08
100	CCn1ccnc1CN(C)Cc1nc(Cc2cccc(C(F)(F)F)c2)no1
  0.55, 0.45
101	Cc1n[nH]c(=O)n1-c1ccc(OC(F)(F)F)cc1
  0.23, 0.82
102	O=C(Cc1cccs1)N=Nc1c(O)[nH]c2ccccc12
  0.63, 0.08
103	Cc1cc(NC(=O)C(C)SCC(=O)Nc2ccc(SC(F)F)cc2)no1 (stereo unspecified)
  2.5, 1.6
104	COC(=O)/C=C1/C(=O)N/C(=N\c2nc(C)cc(C)n2)N1c1ccc(OC)cc1
  0.35, 0.83
105	CN1CCN(CCCNC(=O)c2nnc(Cc3c(F)cccc3Cl)o2)CC1
  0.64, -1
